Calb FLC: C. albicans growth modulation with fluconazole | C. albicans CaCi-2 (fluconazole-resistant clinical isolate) + fluconazole, Alamar Blue growth, 48 h | actives 0.57% (n = 300,000) | AID 1979 | growth inhibition, % (concentration not given with the values);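 active = most replicates above 75%; inconclusive = exactly half above 75%; inactive = most below 75%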;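 note: all wells also contain fluconazole at 8 µg/ml as a sub-toxic cotreatment; 0% = median of DMSO wells and 100% = median of geldanamycin control wells; wells of about 8 µL received 7.5 nL stock; the first replicate is given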
RanGTP-Impb inh: disruptors of Ran-importin-beta complex formation – biochemical, FRET, CFP-Ran, YFP-importin-beta, homogeneous, primary screen; cell-free CFP-Ran/YFP-importin-beta FRET ratio; inhibition, % (test concentration not listed); actives 1.1% (n = 300,000); AID 2216;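 active = most replicates above 15%; inconclusive = exactly half above 15%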;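 note: 0% = DMSO wells and 100% = Ran loaded with GDP instead of GTP; wells of about 40 µL received 100 nL stock; the first replicate is given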
FGF22 binding: binders of recombinant human FGF22 by thermal shift; Q9HCT0; calls only at 9.99 µM; AID 651658; actives 1.5% (n = 340,000); SYPRO orange fluorescence; percent of sucrose octasulfate shift, DMSO zero;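 active = melting point raised past a set limit in the mean and every replicate; inconclusive = no clear call; three in four hits are not shown here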
Target sequence (Q9HCT0 whole entry, looked up): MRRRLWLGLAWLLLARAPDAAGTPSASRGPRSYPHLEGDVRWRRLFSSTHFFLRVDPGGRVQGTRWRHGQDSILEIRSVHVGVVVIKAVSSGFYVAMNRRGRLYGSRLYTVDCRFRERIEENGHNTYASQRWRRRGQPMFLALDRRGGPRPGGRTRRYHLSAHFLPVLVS
MLL AF4-AF9 inh: inhibitors of human MLL-AF4/AF9 interaction. AlphaScreen, biotin-AF4 peptide binding to FLAG-AF9. inhibition, % at 10 µM. actives 0.47% (n = 350,000). AID 651704;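 active = every replicate reaching a set inhibition limit, whatever the replicate mean, cut at about 25% in these data; inconclusive = mean inhibition reaches that limit but some replicates miss it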;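 note: 0% = plate neutral control median and 100% = total signal loss; the record names both 10 and 1 µM as test concentration; the first replicate is given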
Target sequence (P42568 whole entry, looked up): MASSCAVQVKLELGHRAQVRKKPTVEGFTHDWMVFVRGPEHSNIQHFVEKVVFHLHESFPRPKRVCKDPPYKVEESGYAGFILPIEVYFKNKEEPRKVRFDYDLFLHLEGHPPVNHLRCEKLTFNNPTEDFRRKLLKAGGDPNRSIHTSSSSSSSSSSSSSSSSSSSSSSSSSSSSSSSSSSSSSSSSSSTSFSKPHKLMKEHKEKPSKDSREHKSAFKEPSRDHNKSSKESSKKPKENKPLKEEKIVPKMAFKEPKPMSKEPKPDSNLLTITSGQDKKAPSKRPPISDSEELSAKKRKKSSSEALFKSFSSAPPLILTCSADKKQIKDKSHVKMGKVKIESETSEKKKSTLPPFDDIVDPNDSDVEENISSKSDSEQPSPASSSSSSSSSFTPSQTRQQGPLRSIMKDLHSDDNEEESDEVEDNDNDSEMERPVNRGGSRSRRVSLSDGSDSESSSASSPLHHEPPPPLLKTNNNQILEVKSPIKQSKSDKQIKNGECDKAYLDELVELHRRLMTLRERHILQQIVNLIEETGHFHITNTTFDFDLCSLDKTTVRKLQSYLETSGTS
Beta cell apopt: beta cell apoptosis inhibition; INS-1E cytokine-induced death, ATP luminescence, 48 h; percent of positive-control rescue, neutral wells zero; AID 435005; actives 0.8% (n = 300,000); protection from apoptosis, % (test concentration not listed);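 active = all replicates at 75% or more, or half of them and the mean; inconclusive = half reach 75% but not the mean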;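 note: 0% = cytokine-treated negative control wells and 100% = positive control rescue; higher means more ATP so stronger rescue from cytokine killing; wells of about 40 µL received 100 nL stock; the first replicate is given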
T cruzi repl: blocks replication of Trypanosoma cruzi | inhibition, % (test concentration not listed) | actives 1.4% (n = 300,000) | T. cruzi beta-gal in NIH3T3, luminescence, 90 h;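 active = mean inhibition across valid replicates above about 55%, limit read from the data; inconclusive = mean below that limit but half or more replicates reach it; inactive = mean below it, under half of replicates reach it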;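 note: signal also drops with host cell toxicity which is not excluded here; 0% = plate median of DMSO wells and 100% = zero luminescence signal; higher percent means less beta-gal luminescence so fewer parasites; stock transfer was 50 nL into about 50 µL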
Ecoli rRNA inh: inhibitors of bacterial rRNA selective over humanized ribosomes; E. coli WT GFP vs humanized-ribosome RFP mutants, fluorescence, 24 h; hits give low values; DMSO median 0, no signal -100; GFP signal change (wild-type ribosome), % (concentration not given with the values); actives 1.6% (n = 350,000);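 active = significant combined selectivity score with lowered wild-type GFP, culture density cut under 30%, mutant RFP and density less affected; inactive = any of these conditions unmet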; note: one replicate is shown; some compounds called inactive have numbers as strong as hits
ALR H2O2 inh: blocks human ALR sulfhydryl oxidase activity; inhibition, % (no concentration beside the values); P55789; purified ALR, DTT oxidation, H2O2 HRP-luminol luminescence; actives 3.8% (n = 290,000);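 active = mean and each replicate at 75% or more; inconclusive = only one of the two met; inactive = neither met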;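 note: stock transfer was 7.5 nL into about 7.5 µL; 0% = neutral wells and 100% = wells with inactivated enzyme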
Target sequence (P55789 whole entry, looked up): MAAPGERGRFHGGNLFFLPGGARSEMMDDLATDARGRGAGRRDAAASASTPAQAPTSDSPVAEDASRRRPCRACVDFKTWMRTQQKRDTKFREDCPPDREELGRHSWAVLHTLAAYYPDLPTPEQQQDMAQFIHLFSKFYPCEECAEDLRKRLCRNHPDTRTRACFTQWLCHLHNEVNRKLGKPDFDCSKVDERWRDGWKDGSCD
Ecoli rRNA inh OD600: second read-out of Ecoli rRNA inh, no call of its own (marks repeat the call); OD600 change, %; measured here: OD600 growth;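 optical density of the mix in the first replicate; 0 = DMSO median and -100 = no signal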
Ecoli rRNA inh RFP: second read-out of Ecoli rRNA inh, no call of its own (marks repeat the call); RFP signal change, %; measured here: RFP humanized mutant strains;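 first replicate; 0 = DMSO median and -100 = no signal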
Active calls of the source: *; i = inactive; ? = inconclusive; nt = no result given. A portion of the library; count on the stated rates, not on these rows.

structure	Calb FLC	RanGTP-Impb inh	FGF22 binding	MLL AF4-AF9 inh	Beta cell apopt	T cruzi repl	Ecoli rRNA inh	Ecoli rRNA inh OD600	Ecoli rRNA inh RFP	ALR H2O2 inh
CCCC1CCc2c(c3ccccc3[nH]c2=O)O1 (stereo not drawn)	13.1	?	nt	nt	5.9	14.4	nt	nt	nt	-1.6
CCOC(=O)c1cccc(NC(=O)/C(=C\c2ccccc2)NC(=O)c2ccccc2Cl)c1	6.8	-2.3	nt	nt	2.0	12.3	nt	nt	nt	-5.8
COc1cccc(Cn2nc3c4cc(F)ccc4n(Cc4ccc(F)cc4)cc-3c2=O)c1	-6.5	-2.3	i	1.2	nt	1.5	6.4	3.9	-0.8	nt
CCn1cc(C(=O)NCc2ccco2)c(=O)c2cc(S(=O)(=O)N3CC(C)CC(C)C3)ccc21 (stereo not drawn)	19.9	0.2	nt	nt	26.4	5.8	nt	nt	nt	10.0
CCN(C(=O)COC(=O)/C=C/c1ccccc1[N+](=O)[O-])C1CCS(=O)(=O)C1 (stereo not drawn)	36.5	-2.0	i	1.2	1.4	-9.0	6.0	9.3	2.1	-6.8
O=C(CCNS(=O)(=O)c1ccc2c(c1)CCC(=O)N2)Nc1ccc(F)c(F)c1	2.7	3.7	i	-0.2	3.2	-8.3	1.9	4.0	-1.3	-0.5
CC1(c2ccc(Cl)cc2)NC(=O)N(CC(=O)NCc2cccs2)C1=O (stereo not drawn)	-0.2	0.9	i	-3.3	-6.0	-0.8	-1.9	10.1	1.5	-6.2
CN(C)c1nc(OCc2ccccc2)c2ncc(=O)[nH]c2n1	26.1	8.6	i	-0.2	nt	nt	15.4	9.6	3.8	1.4
N#Cc1cn(CC(=O)N2CCc3ccccc3C2)c2ccccc12	7.3	0.1	nt	nt	-4.0	6.0	nt	nt	nt	-15.8
CCC(COC)NC(=O)c1ccc(OC)c(OC2CCN(C(C)=O)CC2)c1 (stereo not drawn)	-0.6	4.6	i	-1.7	-1.1	-13.5	2.4	10.1	0.0	nt
Cc1ccc(C(=O)N/C(=C\c2cccnc2)C(=O)N2CCCC2)cc1	-4.4	-6.1	i	0.5	-4.5	0.5	2.6	11.1	-1.0	-4.1
CNc1nc(=S)[nH]c2ccccc12	1.3	3.2	i	11.3	0.9	-10.3	15.5	7.3	-0.6	21.3
COc1cccc(Nc2ncnc3sc(C)cc23)c1	10.4	8.7	i	1.0	nt	-21.5	-20.9	-20.8	-3.1	-3.7
Cc1ccccc1CN1C(=O)CS/C1=N/N=C/c1ccco1	1.0	1.2	i	nt	nt	-5.1	10.1	7.7	5.8	-5.2
CC(=O)Oc1cc2c(C(=O)NCCCN3CCOCC3)c(C)oc2c2ccccc12	-1.9	-0.5	nt	nt	nt	-4.3	nt	nt	nt	?
O=C(Nc1cc(Cl)ccc1-n1cncn1)c1cc(F)cc(F)c1	-1.6	-5.4	nt	0.0	3.0	-0.7	2.4	5.8	-3.3	1.7
COc1ccc(CNC(=O)c2ccc(NS(=O)(=O)c3ccc4[nH]c(=O)[nH]c4c3)cc2)cc1OC	nt	nt	i	2.3	2.4	nt	-8.7	-19.6	5.4	nt
CCc1nn(-c2ccccc2)c(N)c1C#N	22.2	3.7	i	-11.4	-4.3	-13.7	-9.1	-7.3	4.5	-3.4
CCCn1c(SCC(=O)Nc2cc(Cl)ccc2OC)nc(O)cc1=O	nt	nt	i	-5.1	1.9	nt	-3.8	5.5	3.9	97.9*
NC(=O)CN(c1ccccc1)C1SC(=O)N(Cc2ccccc2)C1=O (stereo not drawn)	10.1	-4.8	i	1.8	0.7	-7.7	13.1	7.4	-4.0	11.5
Cc1csc(=N)n1CC(=O)N1CCc2ccccc21	-0.9	-2.2	nt	nt	-1.7	7.4	nt	nt	nt	-7.0
Cc1ccc(NC(=O)C(C)N2C(=O)c3ccccc3C2=O)cc1 (stereo not drawn)	-2.4	3.7	nt	nt	-10.1	-4.7	nt	nt	nt	nt
CCc1cccc(Nc2cc(C)nc3ncnn23)c1	2.4	1.9	i	0.9	0.0	-10.3	1.6	1.6	-1.6	-8.1
Oc1ccccc1-c1nc2ccccc2nc1-c1ccccc1	-0.7	-1.9	i	14.0	-6.2	-3.0	-11.3	-0.5	4.0	6.0
O=C(O)CCC(=O)Nc1ccc(S(=O)(=O)Nc2nccs2)cc1	nt	0.3	i	-4.6	nt	-9.5	16.0	9.3	3.0	-3.8
N=c1ccn(Cc2cccc(F)c2)cc1	-1.7	-0.9	i	2.2	-6.0	-3.3	22.6	14.8	-0.8	10.4
O=C(COc1ccccc1)Nc1ncccn1	-13.3	3.2	nt	nt	-4.8	-4.4	nt	nt	nt	10.2
O=[N+]([O-])c1ccc(Nc2ccc3ccccc3c2)nc1	-32.3	-10.3	i	-81.4	11.0	30.0	20.5	7.2	10.7	4.1
Nc1ncc(Br)cc1Br	1.1	1.7	nt	nt	-3.0	0.0	nt	nt	nt	nt
N#Cc1c(Nc2ccccc2Cl)s[nH]c1=O	-6.5	2.8	i	-3.7	-5.4	-2.1	0.6	9.9	-1.6	22.0
COc1cc(-c2c(-c3ccc4c(c3)OCO4)noc2C)ccc1F	-5.6	0.1	i	-1.8	9.5	-12.5	-24.5	-32.1	-25.6	3.2
C#CCN(C(=O)Nc1ccccc1)c1ccccc1	-9.4	-2.2	nt	nt	-1.6	-0.9	nt	nt	nt	-1.9
COc1cc(C(=O)N2CCN(C(=O)c3cc(-c4ccccc4)n[nH]3)CC2)cc(OC)c1OC	-5.1	1.3	i	1.0	nt	-14.1	13.8	13.1	9.3	1.7
Nc1ccc(-c2nnn(CC(=O)N3CCCCC3)n2)cc1	-6.0	0.8	i	-13.4	nt	3.5	19.1	11.2	0.4	-2.4
CCOc1ccccc1OCC(=O)Nc1cc(S(=O)(=O)N2CCCCC2)ccc1N1CCN(CC)CC1	-7.3	2.0	i	7.5	0.4	46.5	-1.8	0.8	2.8	-1.9
CC1Cc2ccccc2N1C(=O)CSc1nnc(NC(=O)Cc2cccs2)s1 (stereo not drawn)	1.0	-5.3	nt	nt	-4.4	2.8	nt	nt	nt	3.6
CC(C)(C)OC(=O)C[C@H]1C/C=C\C[C@@H](CC(=O)N(CCO)Cc2ccccc2)C(=O)N[C@H](Cc2ccccc2)COC1=O	nt	nt	i	1.1	-5.5	nt	0.6	-0.9	5.3	-3.7
CCC1CCCCN1CCCNC(=O)C(C)n1nc(C)c2sc3ccccc3c2c1=O (stereo not drawn)	0.3	1.2	i	-0.2	-0.6	25.8	-2.0	-3.1	2.1	-8.2
CC(=O)Nc1c(C)cc(OCC(=O)O)cc1C	2.7	0.2	i	-2.1	-5.7	8.9	9.7	5.5	-4.2	-3.9
Cc1ccnc(NC(=O)CNC(=O)COc2ccccc2)c1	-7.5	-2.9	i	-3.7	nt	-8.4	-0.7	5.4	-0.9	0.0
CCn1c2ccccc2c2nnc(SCC(N)=O)nc21	-0.6	1.4	nt	nt	5.8	5.0	nt	nt	nt	nt
CCCN1CCN(CCCNC(=O)c2ccc(NC(=O)C3=C(C)OCCS3)cc2)CC1	-19.9	2.5	i	6.0	-4.0	2.0	12.9	14.7	2.2	-6.2
CC(=O)c1ccc(NCCC(=O)c2ccccc2)cc1	-7.1	5.8	i	-2.4	-1.1	-5.2	15.0	5.1	-0.6	0.2
O=[N+]([O-])c1sccc1CS(=O)(=O)c1ccccc1	2.9	0.5	i	-5.1	-7.8	31.9	-8.6	-2.3	4.1	-33.1
CC(=O)Nc1ccc(Oc2sc(C(=O)c3ccccc3)c(N)c2C#N)cc1	4.8	-3.3	nt	nt	-36.8	4.2	nt	nt	nt	17.7
Cc1c(C(C)NC(=O)Nc2ccc(F)cc2F)cnn1C (stereo not drawn)	-19.2	5.5	nt	nt	-0.2	-16.0	nt	nt	nt	-15.9
CCC(C(=O)NCc1ccc(F)cc1)N(CCc1ccccc1)C(=O)c1snc(C(N)=O)c1N (stereo not drawn)	4.8	0.2	i	-5.9	-2.6	25.0	-6.2	-24.0	5.3	-0.9
Cc1ccc(C(=O)N2CCN(c3ccccc3F)CC2)cc1S(=O)(=O)N1CCOCC1	2.3	-2.5	nt	1.2	-11.2	6.4	-8.7	-12.5	-2.4	6.4
CCN(CC)S(=O)(=O)c1cc(NC(=O)CCc2c(C)noc2C)ccc1C	nt	nt	i	1.1	4.8	nt	0.3	-12.0	-6.6	-2.4
O=C(NC1CCCC1)c1ccc2nc[nH]c2c1	-5.1	-1.4	nt	nt	0.8	17.6	nt	nt	nt	8.7
COc1cccc(C(=O)N[C@@H](C)C(=O)N2CCC3(CC2)NCCc2[nH]cnc23)c1	-1.2	4.2	i	3.3	-1.9	0.2	8.7	4.9	-1.1	-1.9
Cc1cc(NC(=O)COC(=O)c2cc([N+](=O)[O-])ccc2N2CCOCC2)ccc1Br	-16.8	-3.4	i	4.1	0.1	24.2	-17.6*	8.0*	5.5*	-4.7
CC(NC(=O)C(c1ccccc1)c1ccccc1)C(=O)O (stereo not drawn)	7.2	0.5	i	-9.3	-0.9	3.9	11.6	-3.4	-2.7	-2.2
CCOc1cc(S(=O)(=O)Nc2ncn[nH]2)ccc1Br	-6.5	1.3	i	-2.2	nt	-8.3	7.2	13.8	-0.1	-1.5
CN(C(=O)C1CCN(S(=O)(=O)c2ccccc2)CC1)c1c(N)n(Cc2ccccc2)c(=O)[nH]c1=O	7.8	0.4	i	0.7	-5.2	-0.3	10.7	13.2	3.0	-9.3
Cc1cc(=O)[nH]c(SCC(=O)Nc2nc(-c3ccccc3)c(-c3ccccc3)o2)n1	5.1	4.2	i	1.4	-2.8	-20.4	0.5	2.2	0.1	70.2
c1ccc2c(c1)nnn1c3ccccc3nc21	-10.7	-1.9	nt	nt	13.1	10.3	nt	nt	nt	-0.4
Cc1oc(-c2ccc(Cl)cc2)nc1CS(=O)CC(=O)NCc1cccs1 (stereo not drawn)	1.7	2.0	i	-8.4	-26.5	-13.3	0.1	9.5	0.1	99.1*
O=C1OCC(c2ccccc2)=C1c1ccccc1	-7.9	-2.1	i	0.0	0.4	6.9	-1.4	-11.7	-0.2	-10.5
COCCNC(=O)Cn1nc(-c2ccc(C)cc2)ccc1=O	-1.1	3.1	nt	nt	-11.4	9.2	nt	nt	nt	-8.8

Continued.
structure	Calb FLC	RanGTP-Impb inh	FGF22 binding	MLL AF4-AF9 inh	Beta cell apopt	T cruzi repl	Ecoli rRNA inh	Ecoli rRNA inh OD600	Ecoli rRNA inh RFP	ALR H2O2 inh
O=c1cc(Cn2ccnc2)c2cc(O)ccc2o1	3.0	-1.7	i	-0.2	0.6	-11.8	2.8	12.2	-0.7	-18.0
Cc1c(Cl)cccc1NC(=O)Nc1ccc(C(=O)N2CCCC2)cc1	-5.1	-1.4	nt	nt	nt	-0.5	nt	nt	nt	-2.1
CCc1sc(NC(C)=O)nc1-c1ccccc1	?	1.7	i	-1.0	-1.5	3.4	-18.0	-35.5	1.1	-15.0
O=C(OCc1ccccc1)/C(=C/c1ccc(Cl)cc1)NC(=O)c1ccccc1Cl	-2.9	-6.0	nt	nt	4.1	-13.8	nt	nt	nt	-11.3
